Screening data deposited in PubChem by National Center for Advancing Translational Sciences (NCATS).
miR-21 FLuc: raises the signal of a miR-21 reporter; HeLa miR-21 FLuc reporter, luciferase, 48 h; Potency, µM (highest dose often 38.3 µM), for the others: top-dose reporter change, positive = more light; 340,000 tested, under 10 active; AID 2288; active = well fitted rising curve with a large enough effect; inconclusive = small, poorly fitted or top-dose-only effect; inactive = no such curve, though single readings can be large or run the other way;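 note: % of control where 0% means no effect; miR-21 action dims this reporter so a rising signal means less miR-21 action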
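Using DMEM plus 10% FBS, HeLa miR-21-FLuc cells are incubated with test compounds (final up to about 40uM) for 48 hours; firefly luciferase signal is then imaged following reagent-mediated lysis.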
An asterisk follows results filed as active; ? = inconclusive. Not all compounds are listed. The share of hits here may be higher or lower than overall.

SMILES	miR-21 FLuc
CCOC(=O)N1CCc2c(sc3c2c(=O)n(Cc2ccccc2)c(=O)n3CC(=O)Nc2ccc(C)c(C)c2)C1	5%
Cc1ccc2c(=O)cc(C(=O)Nc3ccc(S(=O)(=O)Nc4onc(C)c4C)cc3)oc2c1C	-2%
COc1ccc(C(=O)c2sc3nc(-c4ccc(C)cc4)cc(C(F)(F)F)c3c2N)cc1	1%
COc1cccc(C(=O)Nc2cccc(C(=O)OCc3cc(=O)n4c(C)csc4n3)c2)c1	-14%
Cc1ccc(C)n1-c1c(C(=O)NCCCN2CCN(c3ccc(F)cc3)CC2)sc2ncccc12	25%
O=c1[nH]c(=O)n(C2CCCCC2)c(O)c1C1=Nc2ccccc2SC(c2ccc(Cl)cc2)C1 (stereo not drawn)	-8%
Cc1nn(-c2ccc(F)cc2)c(-n2cccc2)c1C(=O)N1CCN(c2ccc(F)cc2)CC1	8%
COc1cccc(NC(=O)c2sc3nc(C)c(C(=O)Nc4ccc(C)cc4C)c(-c4ccccc4Cl)c3c2N)c1	6%
Cc1ccc(CCNC(=O)CCCn2c(=O)c3ccccc3n(Cc3ccccc3C)c2=O)cc1	-6%
Cc1cccc(NS(=O)(=O)c2ccc3[nH]c4c(c3c2)CCCCCC4)c1	14%
O=C(Cn1c(=O)oc2cc(S(=O)(=O)N3CCCCC3)ccc21)NCc1ccc(Cl)cc1	28%
CCc1cc2c(cc3c(=O)n(CC(=O)NC4CCC(C)CC4)ncn32)s1 (stereo not drawn)	-4%
Cc1ccccc1CNC(=O)c1cc2cc(S(=O)(=O)N3CCCCC3)ccc2n1C	15%
Cc1cc(C)c2oc(C(=O)Nc3ccc(S(=O)(=O)N(C)c4ccccc4)cc3)cc(=O)c2c1	-1%
CCN(CC)S(=O)(=O)c1ccc2c(c1)c(=O)c(C(=O)N(C)Cc1ccccc1)cn2C	-4%
CCOC(=O)c1c(N)n(-c2ccc(OCC)cc2)c2nc3ccccc3nc12	2%
Cc1ccc(CNC(=O)c2ccc3c(c2)NC(=O)C(CS(=O)(=O)Cc2ccc(F)cc2)N3)cc1 (stereo not drawn)	0%
Cn1nnc2c(N3CCN(c4cccc(Cl)c4)CC3)ncnc21	-10%
O=C(NCC12CC3CC(CC(C3)C1)C2)c1cc2nc(-c3ccc(F)cc3)cc(C(F)(F)F)n2n1	0%
COc1ccc(CNC(=O)C(=O)Nc2c3c(nn2-c2ccccc2)CSC3)cc1	1%
O=C(NCCn1ccc2ccccc21)c1ccc(Cl)cc1	-47%
COc1ccc(-c2cn3nc(N4CCC(C(=O)Nc5ccccc5OC)CC4)sc3n2)cc1	-15%
Cc1cccc(C)c1NC(=O)CSc1nc2ncccc2o1	-1%
Cc1ccc(CCNC(=O)c2ccc(CNS(=O)(=O)c3ccc(C)cc3)cc2)cc1	0%
Cn1nnnc1SCCCNCc1cc(Cl)ccc1OCc1ccccc1	13%
Later entries
SMILES	miR-21 FLuc
Cc1ccc(-n2ncc(C(=O)NCCN3CCOCC3)c2C2CCN(C(=O)OC(C)(C)C)CC2)c(C)c1	-2%
Cc1cn2c(=O)c(S(=O)(=O)N3CCN(c4cc(Cl)ccc4C)CC3)c(C)nc2s1	0%
O=C(c1ccccc1)N1c2nc(-c3ccco3)nn2C2(CCCCC2)[C@@H]2CCCC[C@@H]21	-5%
COc1c(C)cccc1C(=O)Nc1ccc(-c2nc3ccccc3s2)c(Cl)c1	-15%
COc1ccc(NC2=C(c3ccc(C(F)(F)F)cc3)C(=O)c3ccccc32)cc1	-13%
Cc1ccc(NC(=O)C2CCCN(S(=O)(=O)c3ccc(C)cc3)C2)cc1 (stereo not drawn)	10%
COc1cccc(Cn2c(SCC(=O)N3CCN(c4ccc(F)cc4)CC3)nc3ccccc32)c1	-19%
Cc1ccccc1S(=O)Cc1ccc(C(=O)NC2CCCCCC2)o1 (stereo not drawn)	0%
Cn1cnc(S(=O)(=O)N2CCC(C(=O)NCc3ccc(F)cc3)CC2)c1	0%
COc1ccc(C2(CNC(=O)C(=O)Nc3ccc(C)c(Cl)c3)CCCC2)cc1OC	-4%
N#Cc1ccc(C(=O)Nc2cc3nn(-c4ccccc4)nc3cc2Cl)c(F)c1	-9%
COc1ccc(-c2noc(C(C)NC(=O)c3ccco3)n2)cc1 (stereo not drawn)	12%
O=S(=O)(c1ccc(Br)cc1)N1CCn2cccc2C1c1ccc(Br)cc1 (stereo not drawn)	7%
COc1cccc(CNC(=O)COc2cc(=O)n(C)c3ccccc23)c1	0%
COC(=O)c1cc(C)nc2c1c(=O)nc(SCc1c(C)cc(C)cc1C)n2C1CC1	?
COc1ccc(-c2cc(C(=O)Nc3sc4c(c3C(N)=O)CCCC4)no2)cc1	-13%
CCc1ccc(CNC(=O)C(C)n2ccc3cc(S(=O)(=O)N4CCCCCC4)ccc32)cc1 (stereo not drawn)	21%
CCc1cccc(NC(=O)Cn2nc(C)c3sc4ccccc4c3c2=O)c1	12%
CCn1c2ccccc2c2cc(NC(=O)COc3cc(C)ccc3C)ccc21	-8%
CC1CCc2c(sc(NC(=O)Cn3nnc(-c4ccc(C(F)(F)F)cc4)n3)c2C#N)C1 (stereo not drawn)	-8%
CCOc1ccc(NC(=O)Cn2c(=O)n(Cc3ccco3)c(=O)c3ccc(C(=O)NC4CCCC4)cc32)cc1	-4%
Cn1cc(S(=O)(=O)c2ccc(Cl)cc2)c(=O)c2cc(F)c(N3CCOCC3)cc21	-6%
Cc1c(Cl)cccc1NC(c1ccc(F)cc1)c1nnc(-c2ccccc2)o1 (stereo not drawn)	23%
COc1cc(C(CC(=O)Nc2cc(C)ccc2C)N2Cc3ccccc3C2=O)cc(OC)c1OC (stereo not drawn)	1%
Cc1ccc(-n2nc3c(=O)n(CC(=O)NCc4ccco4)nc(C)c3c2C)cc1	-1%

16 compounds from above, arranged by formula weight, lowest first.
SMILES	miR-21 FLuc
COc1ccc(-c2noc(C(C)NC(=O)c3ccco3)n2)cc1 (stereo not drawn)	12%
COc1cccc(CNC(=O)COc2cc(=O)n(C)c3ccccc23)c1	0%
CCn1c2ccccc2c2cc(NC(=O)COc3cc(C)ccc3C)ccc21	-8%
CCc1cccc(NC(=O)Cn2nc(C)c3sc4ccccc4c3c2=O)c1	12%
Cc1ccc(-n2nc3c(=O)n(CC(=O)NCc4ccco4)nc(C)c3c2C)cc1	-1%
COc1ccc(NC2=C(c3ccc(C(F)(F)F)cc3)C(=O)c3ccccc32)cc1	-13%
COc1ccc(-c2cc(C(=O)Nc3sc4c(c3C(N)=O)CCCC4)no2)cc1	-13%
COc1c(C)cccc1C(=O)Nc1ccc(-c2nc3ccccc3s2)c(Cl)c1	-15%
O=C(c1ccccc1)N1c2nc(-c3ccco3)nn2C2(CCCCC2)[C@@H]2CCCC[C@@H]21	-5%
COC(=O)c1cc(C)nc2c1c(=O)nc(SCc1c(C)cc(C)cc1C)n2C1CC1	?
Cn1cc(S(=O)(=O)c2ccc(Cl)cc2)c(=O)c2cc(F)c(N3CCOCC3)cc21	-6%
CC1CCc2c(sc(NC(=O)Cn3nnc(-c4ccc(C(F)(F)F)cc4)n3)c2C#N)C1 (stereo not drawn)	-8%
CCc1ccc(CNC(=O)C(C)n2ccc3cc(S(=O)(=O)N4CCCCCC4)ccc32)cc1 (stereo not drawn)	21%
COc1cc(C(CC(=O)Nc2cc(C)ccc2C)N2Cc3ccccc3C2=O)cc(OC)c1OC (stereo not drawn)	1%
Cc1ccc(-n2ncc(C(=O)NCCN3CCOCC3)c2C2CCN(C(=O)OC(C)(C)C)CC2)c(C)c1	-2%
CCOc1ccc(NC(=O)Cn2c(=O)n(Cc3ccco3)c(=O)c3ccc(C(=O)NC4CCCC4)cc32)cc1	-4%

The listing continues.
SMILES	miR-21 FLuc
COc1ccc(NC(=O)CSc2n[nH]c(-c3ccccc3)n2)cc1Cl	-3%
CCc1ccccc1N(CC)C(=O)c1cc2c(s1)-c1ccccc1OC2	9%
Cc1c(NC(=O)Nc2ccccc2C(F)(F)F)sc2nc3n(c(=O)c12)CCC(C)CC3 (stereo not drawn)	2%
Cc1c(C(=O)N2CCCCCC2)c(S(=O)(=O)N(Cc2ccccc2)C(C)(C)C)c(C)n1C	13%
Cc1ccccc1OC(=O)CSc1nnc(-c2cccs2)o1	-43%
O=C(Cn1c(-c2cccs2)cc2ccccc21)N1CCN(c2ccc(F)cc2)CC1	0%
COc1cc(Cl)c(C)cc1NC(=O)CSc1nc2c(c(=O)[nH]1)CCCC2	-7%
COc1ccc(OC)c(NC(=O)Cn2nc3c(cc2=O)CCCC3)c1	-3%
COc1ccc(-c2nc(Cn3c(SCc4ccccc4F)nc4ccncc43)c(C)o2)cc1OC	0%
FC(F)(F)Oc1ccc2c(c1)NC(c1ccncc1)=NC(c1cccs1)=N2	25%
CCOCCCNC(=O)C1CCN(c2nc3ccc(C)cc3[nH]2)CC1	-11%
O=C1CN(C(=O)c2cccc(Br)c2)C(c2ccccc2)c2cc(Cl)ccc2N1 (stereo not drawn)	15%
COc1ccc(Nc2ccc3cc(S(=O)(=O)N4CCCC4)ccc3n2)cc1Cl	8%
O=C(Cn1c(=O)oc2cc(S(=O)(=O)N3CCCC3)ccc21)Nc1ccc(F)cc1F	-5%
CCOc1ccc(NC(=O)c2cc(CN3CCCC3)on2)cc1	-12%
CCOC(=O)c1ccc(NC2(c3ccccc3)C(=O)c3ccccc3C2=O)cc1	-12%
COc1ccc(CNc2ncnc3c2c(-c2ccccc2)cn3-c2ccccc2)cc1	12%
CCOc1ccc(CC(=O)NCCc2csc3nc(-c4ccccc4F)nn23)cc1	2%
CCCNC(=O)c1c(NC(=O)c2ccccc2)sc2c1CCC(C(C)(C)C)C2 (stereo not drawn)	0%
Cc1ccc2c(=O)cc(C(=O)Nc3sc4c(c3C(N)=O)CCCC4)oc2c1	1%
COc1ccc(CNC(=O)Cn2c(=O)oc3cc(S(=O)(=O)N4CCCCCC4)ccc32)cc1	13%
Cc1cc(OCC(=O)NCCc2nc3ccccc3[nH]2)cc(C)c1Cl	4%
CCc1ccccc1NC(=O)CSc1nncn2c1cc1oc(C)cc12	1%
CCOC(=O)c1c(N)n(-c2cc(C)cc(C)c2)c2nc3ccccc3nc12	-3%
CCOC(=O)c1cc(S(=O)(=O)N2CCN(c3ccccc3)CC2)[nH]n1	23%
Following part
SMILES	miR-21 FLuc
COC(=O)CC1Oc2ccccc2-n2cc(-c3ccc(F)cc3)nc21 (stereo not drawn)	18%
O=C(NCCC1=CCCCC1)c1ccc2c(c1)N(Cc1ccc(Cl)cc1)C(=O)c1ccccc1S2=O (stereo not drawn)	6%
CCOc1ccc2c(c1)c(=O)c(C(=O)c1ccccc1)cn2Cc1ccccc1	10%
Cc1ccc(Cl)cc1N1CCN(C(=O)c2c(C)oc3ncnc(N4CCOCC4)c23)CC1	2%
COc1ccc(-c2c(C)nn3c(C(F)(F)F)cc(-c4ccccc4)nc23)cc1OC	1%
Cn1c(=O)n(C)c2cc(CNCc3ccc(C(=O)O)cc3)ccc21	-5%
Cn1c(=O)c2c(-c3ccccc3)n(CCCO)cc2n(C)c1=O	-10%
Cc1ccc(N(CC(=O)Nc2ccc(F)cc2F)S(=O)(=O)c2cccs2)cc1	7%
O=S(=O)(Nc1nc2n(n1)C(c1ccc(F)cc1)C=C(c1ccccc1)N2)c1ccc(Cl)cc1 (stereo not drawn)	-22%
Cc1cccc(C)c1Nc1c(-c2ccc(O)cc2)nc2sccn12	-6%
Cc1ccc(CNC(=O)C(=O)NCC(c2cccnc2)N2CCN(c3ccccc3F)CC2)cc1 (stereo not drawn)	8%
COc1ccccc1N1CCN(C(=O)c2cnc(N3CCCCC3)c3ccccc23)CC1	28%
Cn1c(=O)c(=O)n(C)c2cc(N3CCOCC3)c(NS(=O)(=O)c3ccc(Cl)cc3)cc21	-7%
CC1CCCN(c2csc3ccc(F)cc3c2=O)C1 (stereo not drawn)	-20%
COc1ccc(C(=O)Cn2c(=O)n3nc(CCn4nc(C)cc4C)nc3c3cc(OC)c(OC)cc32)cc1	-1%
COc1ccc(Cl)cc1N(C)C(=O)C(=O)Nc1ccc2nc3n(c(=O)c2c1)CCCCC3	8%
COC(=O)c1ccc2c(=O)n(CCCCCC(=O)N3CCN(c4cc(C)ccc4C)CC3)c(=O)[nH]c2c1	?
Cc1cccc(N2CCN(C(=O)C3CCCN(S(=O)(=O)c4cccc5nsnc45)C3)CC2)c1C (stereo not drawn)	2%
CCOc1ccc(C(=O)Nc2ccc(-n3nncc3-c3ccccc3)cc2)cc1OCC	21%
O=C(CCS(=O)(=O)c1cccc2nsnc12)Nc1ccc(F)cc1	-5%
Cc1ccc(NC(=O)c2sc3nc[nH]c(=O)c3c2C)cc1Cl	0%
CCN(CC)CCNC(=O)c1ccc(Cn2c(=O)c3cccn3c3cccnc32)cc1	-25%
O=C(Cn1ccn(-c2ccc(F)cc2)c(=O)c1=O)NCCc1ccccc1	-1%
CC1CCN(C(=O)c2c(NC(=O)c3ccccc3Cl)sc3c2CCC(C(C)(C)C)C3)CC1 (stereo not drawn)	-2%
O=C(CSc1nc2ccsc2c(=O)n1Cc1ccccc1F)NCc1ccccc1	10%
Other entries:
SMILES	miR-21 FLuc
Cc1cc(C)n(CC(=O)Nc2cc(F)ccc2F)c(=O)c1C#N	-13%
CCOC(=O)c1cnc2c(C)cc(C)cc2c1Nc1cccc(C(=O)O)c1	-19%
CC(=O)c1ccc(NC(=O)Cn2cnc3nc4c(cc3c2=O)CC(C)CC4)cc1 (stereo not drawn)	-9%
CCCCn1c2ccc(F)cc2c2nnc(SCCN(CC)CC)nc21	0%
Fc1ccc(CN2CCc3nc(Nc4ccccc4)ncc3C2)cc1F	-16%
Cc1cccc(N2CCN(C3(c4ccccc4)C(=O)c4ccccc4C3=O)CC2C)c1 (stereo not drawn)	1%
COc1ccccc1-c1nc(SCC(=O)NCc2ccc(C)cc2)c2c(=O)n(C)c(=O)n(C)c2n1	1%
COc1cc(OC)c(NC(=O)CSc2nccn2C)cc1Cl	2%
CCCCOc1ccccc1C(=O)N(Cc1cccc(F)c1)C1CCS(=O)(=O)C1 (stereo not drawn)	10%
O=C(Cc1csc2nc(-c3ccccc3)cn12)NCc1ccc(F)cc1	1%
O=C(c1ccc2c(c1)N(Cc1ccccc1F)C(=O)c1ccccc1S2=O)N1CCCCC1 (stereo not drawn)	0%
